Compound activity from PubChem BioAssay.
LASV entry inh: Lassa virus entry inhibition; Potency, µM (titrated, usually from 37.9 µM), for inactives: at the top dose activity change, negative = inhibition, actives largely listed as inhibitors; hit rate 1.2% among 300,000; AID 540256; Lassa virus pseudotype entry inhibition, cell reporter; control for the full effect not named in the record; active means well fitted inhibition curve with a large enough effect; inconclusive means small, poorly fitted or top-dose-only effect, or effect the other way; inactive means flat fitted curve, though single readings scatter; tested in HEK293 cells; also: % is scaled to controls: 0 for no effect and ±100 for the full control effect; nearly all actives have a fitted effect of over 50% in size; luciferase read-out
MARV entry inh: blocks Marburg virus binding to or entry into cells; Marburg virus pseudotyped entry inhibition, cell reporter; control for the full effect not named in the record; about a third of the inactives were read at about 46 µM; Potency, µM (titrated, usually from 37.8 µM), for inactives: top-dose activity change, negative = inhibition, most hits filed as inhibitors; hit rate 1.8% among 300,000; AID 540276; active = well fitted inhibition curve with a large enough effect; inconclusive = small, poorly fitted or top-dose-only effect, or effect the other way; inactive = flat fitted curve, though single readings scatter; tested in HEK293 cells; about a fifth of its hits are not listed in these tables; also: % is scaled to controls: 0 for no effect and ±100 for the full control effect; luciferase read-out
SARS PLpro yeast: inhibitors of SARS-CoV papain-like protease in yeast | S. cerevisiae expressing SARS-CoV PLpro, growth rescue; control for the full effect not named in the record | Potency, µM (highest dose often 32.9 µM), without a hit: top-dose activity, positive = growth rescue | hit rate 0.19% among 330,000 | AID 485353; active means well fitted rising curve with a large enough effect; inconclusive means small, poorly fitted or top-dose-only effect; inactive means no such curve, though single readings can be large or run the other way; also: 0% is about no effect; nearly all actives have a fitted effect of over 55% in size; growth read by luminescence after 48 h
StopGo reporter: FMDV 2A StopGo reporter, luciferase signal. human cells with a luciferase reporter of 2A StopGo recoding; control for the full effect not named in the record. Potency, µM (highest dose often 57.9 µM), inactives show at the highest dose signal change, negative = less light. hit rate 1.2% among 410,000; active = well fitted falling curve with a large enough effect; inconclusive = small, poorly fitted or top-dose-only effect; inactive = no such curve, though single readings can be large or run the other way; tested in HEK293T cells; also: % is scaled to controls: 0 for no effect and ±100 for the full control effect; nearly all actives have a fitted effect of over 45% in size; luciferase light after 4 h
RE007 growth inh: less growth of the S. pombe RE007 Vpr strain. hit rate 0.21% among 360,000. AID 651644. Potency, µM (top dose mostly 92.2 µM), without a hit: at the highest dose activity change, negative = less growth. S. pombe RE007 Vpr strain, BacTiter-Glo ATP luminescence, 24 h; control for the full effect not named in the record; active = well fitted falling curve with a large enough effect; inconclusive = small, poorly fitted or top-dose-only effect; inactive = no such curve, though single readings can be large or run the other way;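 also: % is scaled to controls: 0 for no effect and ±100 for the full control effect; nearly all actives have a fitted effect of over 50% in size; the assay follows cell death caused by Vpr and the record does not say whether a fall means rescue or toxicity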
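Fission yeast RE007 carrying one integrated HIV-1 vpr copy, seeded at OD 0.01 in PMG+AL medium with 23 nL pinned compound. Grown 24 h at 30 degrees; viability read by BacTiter-Glo luminescence after 5 min.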
NS1 function inh: influenza NS1 inhibition | hit rate 0.4% among 270,000 | Potency, µM (titrated, usually from 46.1 µM), for inactives: at the top dose activity, positive = more growth | S. cerevisiae slowed by influenza A NS1, growth recovery by OD600; active means well fitted rising curve with a large enough effect; inconclusive means small, poorly fitted or top-dose-only effect; inactive means no such curve, though single readings can be large or run the other way; also: nearly all actives have a fitted effect of over 50% in size
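A cell-based growth assay was used: compounds that relieve NS1-induced slow growth of budding yeast raise OD600. Assay medium was yeast nitrogen base with ammonium sulphate and -URA supplement, pH 6.0, with 2% galactose.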
Cruzain inh noDet: cruzain (T. cruzi) inhibition without detergent | purified cruzain, Z-FR-AMC fluorescence, no detergent | Potency, µM, inactives show max response, negative = inhibition, hits mostly inhibitors | hit rate 2.3% among 200,000 | AID 1476;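 also: plate controls were enzyme without inhibitor for no effect and buffer without enzyme for full effect; nearly all actives have a fitted effect of over 40% in size; top concentration of the series not given in the record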
Target sequence (P25779 123-467 limits assumed): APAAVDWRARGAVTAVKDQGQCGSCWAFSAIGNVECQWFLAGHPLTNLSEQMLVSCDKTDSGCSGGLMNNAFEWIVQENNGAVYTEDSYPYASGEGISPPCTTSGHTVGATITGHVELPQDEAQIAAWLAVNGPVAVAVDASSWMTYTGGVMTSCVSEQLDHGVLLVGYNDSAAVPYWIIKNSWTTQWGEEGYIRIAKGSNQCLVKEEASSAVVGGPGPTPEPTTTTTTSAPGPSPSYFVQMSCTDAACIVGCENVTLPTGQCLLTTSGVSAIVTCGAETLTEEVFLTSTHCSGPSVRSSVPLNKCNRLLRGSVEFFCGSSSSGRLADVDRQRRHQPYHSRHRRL
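Purified cruzain at 1.5 nM, pre-incubated 15 min with compound at room temperature in 100 mM sodium acetate pH 5.5, 5 mM DTT, 0.00005% Triton X-100. Reaction started with 2 uM Z-FR-AMC; AMC fluorescence increase over 60 s gives rate.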
Cruzain Triton: blocks cruzain activity in presence of Triton detergent; Potency, µM, without a hit: max response, negative = inhibition, most hits filed as inhibitors; purified cruzain, Z-FR-AMC fluorescence, 0.01% Triton; P25779; AID 1478; hit rate 0.43% among 200,000;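 also: plate controls were neutral wells for no effect and buffer without enzyme for full effect; nearly all actives have a fitted effect of over 40% in size; top concentration of the series not given in the record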
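Sodium acetate buffer (100 mM, pH 5.5) containing 5 mM DTT and 0.01% Triton X-100 hosted 1.5 nM cruzain and test compound for 15 min at room temperature. Cleavage of 2 uM Z-FR-AMC was then tracked by fluorescence.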
The depositor's hits bear a star; ? = inconclusive; nt = not tested or not shown; & = joins results of further samples; [ ] = remark or other dose. Unless noted, calls follow the shape of the dose curve; as a rule, active = well fitted curve in the direction sought with a large enough effect; inconclusive = small, poorly fitted or top-dose-only effect, or another doubt; inactive = no such curve, though single readings can be large; an effect the other way counts as inactive or inconclusive. Potency is read from the fitted curve at half-maximal effect.

mol,NS1 function inh,Cruzain Triton,RE007 growth inh,MARV entry inh,Cruzain inh noDet,SARS PLpro yeast,LASV entry inh,StopGo reporter
O=C(NC(=S)Nc1ccc2c(c1)OCCO2)c1cccc2ccccc12,?,-12%,-3%,0%,?,?,?,12%
CC(C)Sc1n[nH]c(=O)n1-c1ccccc1,5%,nt,-16%,nt,nt,0%,nt,-16%
Cc1ccc(C)c(-n2nnnc2SCC(=O)Nc2cccc(-c3nnc4n3CCCCC4)c2)c1,-34%,-3.9%,-19%[3.69 µM],0%&-2%,?,0%,5%,-16%
CCOc1ccc(S(=O)(=O)N2CCN(CC(O)COc3cccc([N+](=O)[O-])c3)CC2)cc1 (configuration not stated),-6%,nt,7%,?,nt,-3%,11%,?
O=C(NC1CCS(=O)(=O)C1)c1cccc(S(=O)(=O)N2CCCCC2)c1 (configuration not stated),-1%,2.3%,-2%,-23%,3%,-1%,0%,-9%
O=C(Nc1cccc(C(F)(F)F)c1)c1ccc2c(c1)nnn2C1CCCC1,nt,-5.6%,nt,nt,1%,nt,-2%[46.1 µM],-51%
COC(=O)C(CC(C)C)N1CCC(=O)c2ccccc2S1(=O)=O (configuration not stated),6%,nt,-15%,nt,nt,?,nt,-20%
CCc1ccc2[nH]c(=O)c(CN(CCCN3CCOCC3)C(=O)Nc3ccc(Cl)cc3)cc2c1,-7%,1.7%,5%,?,0%,9%,?,-20%
CC1Cc2cc(S(=O)(=O)CCC(=O)Nc3ccc(Cl)cc3F)ccc2N1C(=O)C1CC1 (configuration not stated),nt,-2.4%,nt,nt,-12%,nt,-8%[46.1 µM],?
COc1ccc(NC(C)c2ccccc2)cc1 (configuration not stated),nt,nt,-23%,10%[46.1 µM],nt,9%,3%[46.1 µM],28%
O=S(=O)(c1ccc(Cl)cc1)N1CCCCC1c1cccnc1 (configuration not stated),nt,nt,16%,?,nt,-23%,8%,-27%
COc1ccc(Cl)cc1NC(=O)Cn1c(=O)n(Cc2nc(C)no2)c(=O)c2ccccc21,nt,-6.5%,nt,nt,13%,nt,?,-31%
CCOc1ccc(S(=O)(=O)Nc2nccs2)cc1,-2%,nt,14%,-8%[46.1 µM],nt,1%,-19%,57%[activator]
COc1ccc(NC(=O)N(CCc2ccccc2)Cc2cc3c(C)cc(C)cc3[nH]c2=O)cc1,2%,-2.9%,-9%,?,-1%,-7%,11%,9%
Cc1ccc2[nH]c(=O)c(CN(CCCN3CCOCC3)C(=O)NC3CCCCC3)cc2c1,-1%,4.9%,-11%,-23%&-23%,7%,3%,1%,-25%
Cc1ccc(NC(=O)C(=O)NCC2OCCc3ccccc32)cc1 (configuration not stated),0%,nt,-7%,nt,nt,-1%,nt,30%[activator]
CCCc1c(C)c2cc(C)ccc2[nH]c1=O,-94%,-2.0%,-15%,-2%,-1%,-1%,-4%,2%
CCc1noc(C)c1C(=O)N(CC)c1nc2c(C)cccc2s1,nt,nt,-17%,?,nt,-17%,-10%,-19%
CCOc1ccc(-c2cc3nc(C4CCN(C(=O)OC(C)(C)C)CC4)c(C(=O)Nc4cccc(C(F)(F)F)c4)cn3n2)cc1,nt,-4.4%,nt,-5%[46.1 µM],?,nt,0%[46.1 µM],-16%
Cc1cccc(CS(=O)(=O)Cc2ccc(C(=O)NCc3cccnc3)o2)c1,0%,3.3%,-17%,-8%,2%,10%,8%,?
Nc1c(C(=O)Nc2ccc(F)cc2)sc(=S)n1-c1ccccc1F,nt,nt,-5%,?,nt,0%,?,-15%
Cc1ccc(Cl)cc1NC(=O)c1cc(-c2ccc3c(c2)OCCO3)on1,nt,-3.3%,nt,?,-16%,nt,?,13%
COc1ccc(/C=N/NC(=O)c2ccncc2)cc1COc1ccc(NC(C)=O)cc1,-8%,nt,-5%,nt,nt,0%,nt,10%
O=C(NCCC1=CCCCC1)C1CCC(CNc2c(N3CCCC3)c(=O)c2=O)CC1 (configuration not stated),2%,nt,6%,-4%[46.1 µM],nt,2%,-1%,-2%
COc1ccc(OC)c(NC(=O)c2cc(-c3cc(C)cc(C)c3O)n[nH]2)c1,-2%,nt,-8%,?,nt,0%,-19%,2%
CC(=O)Nc1cc(C(F)(F)F)ccc1OCCOc1ccccc1,nt,nt,-24%,-3%,nt,nt,0%,-28%
O=C(O)C1CN(C(=O)c2ccccc2)c2cc(Cl)ccc2O1 (configuration not stated),2%,nt,1%,?,nt,1%,3%[46.1 µM],-10%
CCCOc1ccc(C(=O)NC(=S)NCc2cccnc2)cc1,-33%,-6.7%,-8%,0%,-3%,-9%,-17%,-20%
CC[n+]1ccc(C[n+]2ccccc2)c2ccccc21,4%,-2.8%,-12%,12%,-10%,-26%,-2%,-26%
COc1ccccc1-c1cc(C(=O)O)c2c(=O)n(C)c(=O)n(Cc3ccccc3)c2n1,6%,nt,-5%,0%[46.1 µM],nt,0%,nt,2%
Cc1ccc(-c2cc(C(=O)NCc3ccc4c(c3)OCO4)[nH]n2)c(O)c1C,?,-9.8%,15%,-27%,-8%,7%,-2%,40%[activator]
CC(Oc1ccc(Cl)cc1)c1ccnn1S(=O)(=O)c1ccc(Cl)cc1 (configuration not stated),-32%,-6.3%,17%,-24%,0%,22%,-21%,?
CCN(c1ccccc1)S(=O)(=O)c1ccc(NCC2COc3ccccc3O2)nc1 (configuration not stated),-6%,-5.1%,17%,?,-1%,-11%,16µM*,?
O=c1[nH]cnc2scc(-c3ccc(-c4ccccc4)cc3)c12,-2%,1.5%,14%,?,-6%,-7%,?,11%
Cc1cc(NC(=O)COC(=O)CNS(=O)(=O)c2c(F)cc(F)cc2Br)no1,nt,nt,13%,-17%[46.1 µM],nt,-4%,-4%[46.1 µM],7%
Cc1ccc(C)c(C(C)NC(=S)NCc2ccc(F)cc2)c1 (configuration not stated),-8%,nt,7%,?,nt,13%,-16%[46.1 µM],-1%
CCOc1ccc(NC(=O)Cn2c(=O)c(CNc3ccc(OC)cc3)cc3ccc(OC)cc32)cc1,nt,-5.2%,nt,nt,-23%,nt,-7%[46.1 µM],12%
Cc1ccc(Sc2ccc(N3CCCC(C(=O)Nc4ccc(F)c(Cl)c4)C3)nn2)cc1 (configuration not stated),nt,-4.6%,nt,-4%[46.1 µM],-27%,nt,?,-11%
CC1CCN(S(=O)(=O)c2nnc(NC(=O)c3ccc(C(C)C)cc3)s2)CC1,nt,-0.9%,nt,nt,2%,nt,9%[46.1 µM],13%
CCOc1ccc(CC(=O)N2CCN=C2SCc2ccc([N+](=O)[O-])cc2)cc1,nt,nt,-16%,?,nt,1%,-28%,?
CC(=O)c1ccc(NC(=O)/C(=C\c2cccs2)NC(=O)c2ccco2)cc1,5%,nt,-4%,20%[46.1 µM],nt,0%,0%,-3%
CCn1c(SCc2ccc([N+](=O)[O-])cc2)nnc1C(C)NC(=O)c1ccc(C)cc1 (configuration not stated),2%,-2.2%,11%,25%,-12%,4%,-1%,-25%
O=C(Nc1nc2ccccc2[nH]1)NC1CCCCC1,2%,nt,-18%,?,nt,?,11µM*,-26%
COc1ccc(-c2nc(-c3ccc(Br)o3)no2)cc1,0%,6.2%,4%,nt,-21%,6%,nt,-16%
COc1ccc(S(=O)(=O)n2nc(C)cc2C)c(C)c1C,0%,2.0%,0%,-30%,6%,3%,6%,nt
O=C(NCc1ccc2c(c1)OCO2)c1cccc(Cl)c1,-2%,-12%,17%,3%,-12%,-2%,27%,25%
c1ccc2c(c1)c1ccccc1n1c(-c3ccc4c(c3)OCO4)nnc21,-6%,-4.7%,-11%,4%,-7%,6%,2%,25µM*
O=C1CSc2ccc(C(=O)NCCC3=CCCCC3)cc2N1,10%,1.7%,-2%,3%,0%,-2%,?,35%[activator]
O/N=C1/C2C3CC4C5C3C1C5C1(OCCO1)C42 (configuration not stated),7%,4.8%,-12%,0%,-15%,1%,-30%,-15%
COc1ccc(OC)c(NC(=O)C2CCCN2C(=O)OCc2ccccc2)c1 (configuration not stated),-22%,0.9%,-21%,-17%,7%,3%,-5%,-14%

The listing continues:
mol,NS1 function inh,Cruzain Triton,RE007 growth inh,MARV entry inh,Cruzain inh noDet,SARS PLpro yeast,LASV entry inh,StopGo reporter
COc1cccc(CCNC(=O)c2c(O)nc3cc(C)ccn3c2=O)c1,nt,-0.9%,nt,-5%[46.1 µM],-3%,nt,nt,9%
Cn1c(=O)c2ncn(CC(=O)N/N=C/c3ccco3)c2n(C)c1=O,0%,-6.4%,-4%,1%,8%,-7%,-2%,4%
Cc1cc(NCc2ccc(F)cc2Cl)n2nnnc2n1,8%,-3.8%,6%,1%,0%,0%,4%,0%
COc1ccc(CNC(=O)C(=O)NCC(c2ccco2)S(=O)(=O)c2cccs2)cc1 (configuration not stated),nt,-2.4%,nt,nt,13%,nt,1%[46.1 µM],-25%
CCCn1c(=O)c2ccccc2n2c(SCCOc3ccccc3)nnc12,-13%,-11%,6%,3%,3%,3%,7%,nt
O=C(CN1CCCCCC1)Nc1cccc([N+](=O)[O-])c1,-8%,nt,-1%,nt,nt,-1%,nt,-8%
COc1cc(Cl)c(C)cc1NC(=O)COC(=O)C1=COCCO1,nt,nt,-8%,6%,nt,-2%,4%,2%
O=C(O)C1CCCCC1C(=O)NC(c1ccccc1)c1ccccc1 (configuration not stated),1%,nt,0%,12%,nt,2%,3%,23%
Oc1ccccc1N=Cc1c(O)ccc2ccccc12,-57%,nt,-30%,-13%[46.1 µM],nt,-6%,-5%[46.1 µM],-1%
Cc1ccc(Cl)cc1NC(C#N)c1ccccc1 (configuration not stated),0%,nt,0%,-23%[46.1 µM],nt,-1%,-1%,-17%
COc1cccc(C(=S)N2CCCC2)c1OC,5%,nt,4%,nt,nt,2%,nt,4%
Cc1cccc2cc3c(nc12)SC(=NCC1CCCO1)N(Cc1ccco1)C3 (configuration not stated),22%,-5.8%,-2%,?,-14%,-14%,?,?
